# Screening results: PubChem BioAssay, National Center for Advancing Translational Sciences (NCATS)
# LASV entry inh: blocks Lassa virus binding to or entry into cells; Potency, µM (titrated, usually from 37.9 µM), without a hit: at the top dose activity change, negative = inhibition, hits mostly inhibitors; Lassa virus pseudotype entry inhibition, cell reporter; control for the full effect not named in the record; 300,000 tested, 1.2% active; active means well fitted inhibition curve with a large enough effect; inconclusive means small, poorly fitted or top-dose-only effect, or effect the other way; inactive means flat fitted curve, though single readings scatter; tested in HEK293 cells; further: on the % scale 0 is the no-effect control and ±100 the full control effect; nearly all actives have a fitted effect of over 50% in size; luciferase read-out
# NS1 inh: blocks influenza NS1 protein function. S. cerevisiae slowed by influenza A NS1, growth recovery by OD600. Potency, µM (highest dose often 46.1 µM), inactives show at the highest dose activity, positive = more growth. 270,000 tested, 0.4% active; active means well fitted rising curve with a large enough effect; inconclusive means small, poorly fitted or top-dose-only effect; inactive means no such curve, though single readings can be large or run the other way; further: nearly all actives have a fitted effect of over 50% in size
#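 OD600 was taken as the measure of yeast growth restored by compound in an NS1-expressing S. cerevisiae strain. Cells had been washed out of glucose medium and diluted 1:100 into galactose -URA medium, pH 6.0.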
# StopGo reporter: lowers the luciferase signal of an FMDV 2A StopGo reporter | human cells with a luciferase reporter of 2A StopGo recoding; control for the full effect not named in the record | Potency, µM (titrated, usually from 57.9 µM), for inactives: top-dose signal change, negative = less light | 410,000 tested, 1.2% active | AID 1159524; active = well fitted falling curve with a large enough effect; inconclusive = small, poorly fitted or top-dose-only effect; inactive = no such curve, though single readings can be large or run the other way; tested in HEK293T cells; further: on the % scale 0 is the no-effect control and ±100 the full control effect; nearly all actives have a fitted effect of over 45% in size; luciferase light after 4 h
# Marburg entry inh: Marburg virus entry inhibition. Potency, µM (series often up to 37.8 µM), for the others: at the highest dose activity change, negative = inhibition, actives largely listed as inhibitors. Marburg virus pseudotyped entry inhibition, cell reporter; control for the full effect not named in the record; about a third of the inactives were read at about 46 µM. AID 540276. 300,000 tested, 1.8% active; active = well fitted inhibition curve with a large enough effect; inconclusive = small, poorly fitted or top-dose-only effect, or effect the other way; inactive = flat fitted curve, though single readings scatter; tested in HEK293 cells; about a fifth of its hits are not listed in these tables; further: on the % scale 0 is the no-effect control and ±100 the full control effect; luciferase read-out
# Cruzain noTriton: blocks cruzain activity in detergent-free assay; P25779; purified cruzain, Z-FR-AMC fluorescence, no detergent; Potency, µM, without a hit: max response, negative = inhibition, hits mostly inhibitors; 200,000 tested, 2.3% active;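 further: plate controls were enzyme without inhibitor for no effect and buffer without enzyme for full effect; nearly all actives have a fitted effect of over 40% in size; top concentration of the series not given in the record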
# Target sequence (P25779 123-467 limits assumed): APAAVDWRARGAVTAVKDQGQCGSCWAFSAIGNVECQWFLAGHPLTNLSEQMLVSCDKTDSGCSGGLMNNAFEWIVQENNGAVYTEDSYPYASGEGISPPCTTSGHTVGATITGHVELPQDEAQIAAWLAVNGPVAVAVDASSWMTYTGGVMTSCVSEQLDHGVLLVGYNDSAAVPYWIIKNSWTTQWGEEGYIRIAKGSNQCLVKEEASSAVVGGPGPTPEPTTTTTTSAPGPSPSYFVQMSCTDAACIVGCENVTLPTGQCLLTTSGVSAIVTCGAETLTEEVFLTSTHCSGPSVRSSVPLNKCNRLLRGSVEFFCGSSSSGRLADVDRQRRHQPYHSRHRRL
#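 Detergent-free condition (0.00005% Triton X-100) in acetate buffer pH 5.5 with DTT. 1.5 nM enzyme and compound were pre-mixed 15 min, then 2 uM Z-FR-AMC substrate added; reaction progress from fluorescence change between first and third reads (60 s).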
# SARS PLP yeast: SARS-CoV PLP inhibition in yeast. S. cerevisiae expressing SARS-CoV PLpro, growth rescue; control for the full effect not named in the record. Potency, µM (titrated, usually from 32.9 µM), for inactives: at the top dose activity, positive = growth rescue. 330,000 tested, 0.19% active. AID 485353; active means well fitted rising curve with a large enough effect; inconclusive means small, poorly fitted or top-dose-only effect; inactive means no such curve, though single readings can be large or run the other way; further: 0% is about no effect; nearly all actives have a fitted effect of over 55% in size; growth read by luminescence after 48 h
# Cruzain inh Det: blocks cruzain activity in presence of Triton detergent; P25779; purified cruzain, Z-FR-AMC fluorescence, 0.01% Triton; Potency, µM, without a hit: max response, negative = inhibition, hits mostly inhibitors; 200,000 tested, 0.43% active;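 further: plate controls were neutral wells for no effect and buffer without enzyme for full effect; nearly all actives have a fitted effect of over 40% in size; top concentration of the series not given in the record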
#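 Cruzain (1.5 nM) preincubated 15 min at RT with compound in 100 mM sodium acetate pH 5.5, 5 mM DTT, 0.01% Triton X-100. Reaction started with 2 uM Z-FR-AMC; AMC fluorescence (ex 360/em 450 nm) change over 60 s gave rate.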
# RE007 growth inh: less growth of the S. pombe RE007 Vpr strain; S. pombe RE007 Vpr strain, BacTiter-Glo ATP luminescence, 24 h; control for the full effect not named in the record; Potency, µM (highest dose often 92.2 µM), for the others: at the highest dose activity change, negative = less growth; 360,000 tested, 0.21% active; AID 651644; active = well fitted falling curve with a large enough effect; inconclusive = small, poorly fitted or top-dose-only effect; inactive = no such curve, though single readings can be large or run the other way;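 further: on the % scale 0 is the no-effect control and ±100 the full control effect; nearly all actives have a fitted effect of over 50% in size; the assay follows cell death caused by Vpr and the record does not say whether a fall means rescue or toxicity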
#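 Fission yeast RE007 carrying one integrated HIV-1 vpr copy, seeded at OD 0.01 in PMG+AL medium with 23 nL pinned compound. Grown 24 h at 30 degrees; viability read by BacTiter-Glo luminescence after 5 min.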
# * marks the source's active call; other numbers are inactive results; ? = inconclusive; / = no result given; & = joins results of further samples; [ ] = another dose, or the depositor's remark. Unless noted, the call rests on the fitted dose curve; in most records, active means well fitted curve in the direction sought with a large enough effect; inconclusive means small, poorly fitted or top-dose-only effect, or another doubt; inactive means no such curve, though single readings can be large; an effect the other way counts as inactive or inconclusive. Potency means the concentration at half of the fitted maximal effect.
# Results follow in this order: LASV entry inh	NS1 inh	StopGo reporter	Marburg entry inh	Cruzain noTriton	SARS PLP yeast	Cruzain inh Det	RE007 growth inh
1	COc1ccc(CCCc2nnc(SCC(=O)Nc3ccccc3F)o2)cc1C
    ?	/	-16%	4%[46.1 µM]	-12%	/	-8.3%	/
2	O=c1n(Cc2ccccc2F)c2ccccc2n1Cc1ccccc1F
    -18%	-3%	-11%	8%	3%	-12%	-2.6%	-8%
3	Cc1ccc(NC(=O)c2ccc(OC(=O)C(C)Oc3ccc(Cl)cc3C)cc2)cc1 (stereo not given)
    ?	14%	32%[activator]	?	7.9µM*	0%	1.6%	0%
4	Cc1ccc(Cl)cc1N1CCN(S(=O)(=O)c2cccc(S(=O)(=O)N3CCCC3)c2)CC1
    -20%	?	-30%	-17%&-17%[46.1 µM]	?	2%	2.9%	-2%
5	CCOP(=O)(Cc1ccc(C(=O)CC)o1)OCC
    2%	0%	-11%	-22%[46.1 µM]	/	-2%	/	9%
6	CC(=O)c1ccc(-c2cc([C@H]3[C@H]4C=CC[C@@H](C)[C@@H]4C(=O)N3Cc3ccccc3)ccc2F)cc1
    /	12%	?	/	/	-1%	/	4%
7	COc1ccc(CCN2C(=O)CC(C(C)c3ccccc3)C2=O)cc1OC (stereo not given)
    ?	/	?	6%[46.1 µM]	/	-2%	/	18%
8	CCSC1=C(C#N)C(=O)n2c1cc1c2CCCC1
    -22%	-3%	-24%	?	-30%	-8%	-4.7%	-27%
9	COCC1CCCN(Cc2cn(-c3ccccc3)nc2-c2ccc3c(c2)OCO3)C1 (stereo not given)
    ?	-1%	-11%	-15%[46.1 µM]	/	0%	/	-2%
10	Clc1ccc(-c2nn3c(-c4cccc(Cl)c4)nnc3s2)cc1
    /	1%	/	/	-30%	-2%	2.6%	/
11	COc1cccc(C(=O)Oc2cc(C)[nH]c(=O)c2[N+](=O)[O-])c1
    0%[46.1 µM]	/	2%	4%[46.1 µM]	/	0%	/	-5%
12	COC(=O)C1=C(C)Nc2nnnn2C1c1ccccc1Cl (stereo not given)
    -4%	-7%	-12%	?	-11%	19%	-2.0%	2%
13	CC(OC1=CC(=O)CCC1)C(=O)c1ccccc1 (stereo not given)
    15%	4%	-8%	?	1%	-1%	-3.3%	14%
14	O=C(NCCCN1CCOCC1)c1ccccc1N1C(=O)[C@@H]2Cc3c([nH]c4ccccc34)C(c3ccc(F)cc3)N2C1=O (stereo not given in full)
    /	-28%	-21%	/	/	2%	/	-16%
15	S=c1nc(C2CCCCC2)n(-c2ccccc2)[nH]1
    -11%	-9%	5%	-2%[46.1 µM]	/	15%	/	-21%
16	COc1ccc(NC(=O)CSc2ccccc2)cn1
    ?	/	33%[activator]	?	/	0%	/	-5%
17	CC[n+]1cccc(-c2nc3ccccc3s2)c1
    -7%	/	?	0%	/	2%	/	-8%
18	O=C(NC1CCCCC1)N(CCN1CCOCC1)Cc1cc2cc3c(cc2[nH]c1=O)OCCO3
    21%	-17%	2%	-16%	-7%	3%	-9.0%	-7%
19	CCN(CC)CCO
    /	/	-18%	/	-1%	0%	5.2%	-3%
20	CN(C)c1oc(-c2ccc(OCc3ccccc3)cc2)nc1C#N
    10%	-15%	18%	?	29%	-11%	-3.8%	6%

# Random excerpt: 5 records from the list
# Results follow in this order: LASV entry inh	NS1 inh	StopGo reporter	Marburg entry inh	Cruzain noTriton	SARS PLP yeast	Cruzain inh Det	RE007 growth inh
14	O=C(NCCCN1CCOCC1)c1ccccc1N1C(=O)[C@@H]2Cc3c([nH]c4ccccc34)C(c3ccc(F)cc3)N2C1=O (stereo not given in full)
    /	-28%	-21%	/	/	2%	/	-16%
18	O=C(NC1CCCCC1)N(CCN1CCOCC1)Cc1cc2cc3c(cc2[nH]c1=O)OCCO3
    21%	-17%	2%	-16%	-7%	3%	-9.0%	-7%
10	Clc1ccc(-c2nn3c(-c4cccc(Cl)c4)nnc3s2)cc1
    /	1%	/	/	-30%	-2%	2.6%	/
17	CC[n+]1cccc(-c2nc3ccccc3s2)c1
    -7%	/	?	0%	/	2%	/	-8%
11	COc1cccc(C(=O)Oc2cc(C)[nH]c(=O)c2[N+](=O)[O-])c1
    0%[46.1 µM]	/	2%	4%[46.1 µM]	/	0%	/	-5%

# An excerpt of these results, bar-delimited.
no. | SMILES | LASV entry inh | NS1 inh | StopGo reporter | Marburg entry inh | Cruzain noTriton | SARS PLP yeast | Cruzain inh Det | RE007 growth inh
13 | CC(OC1=CC(=O)CCC1)C(=O)c1ccccc1 (stereo not given) | 15% | 4% | -8% | ? | 1% | -1% | -3.3% | 14%
15 | S=c1nc(C2CCCCC2)n(-c2ccccc2)[nH]1 | -11% | -9% | 5% | -2%[46.1 µM] | / | 15% | / | -21%
14 | O=C(NCCCN1CCOCC1)c1ccccc1N1C(=O)[C@@H]2Cc3c([nH]c4ccccc34)C(c3ccc(F)cc3)N2C1=O (stereo not given in full) | / | -28% | -21% | / | / | 2% | / | -16%
10 | Clc1ccc(-c2nn3c(-c4cccc(Cl)c4)nnc3s2)cc1 | / | 1% | / | / | -30% | -2% | 2.6% | /

# The results go on.
# Results follow in this order: LASV entry inh	NS1 inh	StopGo reporter	Marburg entry inh	Cruzain noTriton	SARS PLP yeast	Cruzain inh Det	RE007 growth inh
21	COc1cc(OC)c2ccc(=O)oc2c1C(CCN1CCOCC1)c1ccc2c(c1)OCO2 (stereo not given)
    /	/	15%	/	-21%	-7%	-2.7%	-13%
22	CCOC(=O)C1=C(O)C(=O)N(c2ccc(S(N)(=O)=O)cc2)C1c1ccc(Cl)cc1 (stereo not given)
    2%	-32%	-1%	7%	-2%	-1%	0.7%	5%
23	CC(/C=C/c1ccccc1)=N/NC(=O)c1cnccn1
    13%	10%	25%	19%[46.1 µM]	-6%	20%	-6.8%	11%
24	CCCCn1c(N)c(N(CCOC)C(=O)c2cc(-c3ccc(OC)cc3)nc3ccccc23)c(=O)[nH]c1=O
    ?	/	4%	2%	/	/	/	3%
25	CC(C)c1nn2c(=O)cc(COC(=O)c3cccs3)nc2s1
    ?	/	11%	/	-10%	/	-3.0%	/
26	O=C(CC1C(=O)N(c2ccccc2)C(=O)N1C1CCCCC1)Nc1ccccc1 (stereo not given)
    9%	-13%	-4%	18%	0%	3%	2.7%	10%
27	N#CC12CCCCC1CC1CCCCC1(C#N)N2CCO (stereo not given)
    -2%	-1%	-20%	0%	3%	0%	5.0%	-5%
28	Cc1cc(C)cc(NC(=S)N(CCN2CCCCC2)Cc2ccco2)c1
    ?	/	-14%	?	/	2%	/	-9%
29	CC(C)Nc1nc(C#N)nc(NC(C)C)n1
    -8%	6%	-18%	-23%	16µM*	9%	11µM*	5%
30	O=C(COc1ccccc1)NCC(c1ccco1)N1CCN(c2ccc(F)cc2)CC1 (stereo not given)
    ?	/	-10%	?	/	-2%	/	1%
31	Cc1ccc(Cl)cc1NC(=O)Cn1c(=O)n(CCC(=O)N2CCc3ccccc3C2)c(=O)c2ccccc21
    ?	/	1%	2%[46.1 µM]	12%	/	0.4%	/
32	Cc1cccc(NC(=O)CN2C(=O)CSC2=O)c1
    -1%	6%	47%[activator]	?	/	2%	/	25%
33	COc1ccc(Nc2nnc(C)c(=O)[nH]2)c(OC)c1
    -3%[46.1 µM]	4%	15%	-19%[46.1 µM]	/	-6%	/	4%
34	O=C(CCC1CCCCC1)NCCN1C2=NC[C@H](Cc3ccc(O)cc3)N2C[C@H]1Cc1ccc(O)cc1
    /	0%	-19%	/	/	0%	/	-11%
35	COc1ccccc1NC(=O)Cn1cnc2c(cnn2-c2ccccc2)c1=O
    -2%	7%	?	1%	1%	4%	2.9%	0%
36	N#Cc1cc2c(nc1SCC(=O)N1CCOCC1)CCCCC2
    ?	8%	/	-29%	-2%	-11%	-0.7%	-4%
37	CC(C)(C)c1ccc(C(=O)NCCC(=O)Nc2ccc(S(=O)(=O)Nc3nccs3)cc2)cc1
    -7%	/	-7%	?	/	4%	/	-10%
38	O=S1(=O)c2ccccc2N(Cc2ccc(Cl)cc2F)c2ccccc21
    8%[46.1 µM]	/	?	/	32µM*	/	-9.5%	/
39	COc1ccc(S(=O)(=O)N2CCOCC2)cc1C(=O)N1CCCCCC1
    9%	-2%	0%	-2%	/	-4%	/	24%
40	Cc1cc(Br)ccc1NC(=O)CNC(=O)CN(C)C1CCS(=O)(=O)C1 (stereo not given)
    ?	/	-7%	4%	/	-2%	/	4%

# Down the list, quoted from above:
# RE007 growth inh, compounds 10–14 → /, -5%, 2%, 14%, -16%

# Remaining list, next part:
# Results follow in this order: LASV entry inh	NS1 inh	StopGo reporter	Marburg entry inh	Cruzain noTriton	SARS PLP yeast	Cruzain inh Det	RE007 growth inh
41	Cc1ccc(C2=C(O)C(=O)C(c3ccc(C)cc3)=C(O)C2=O)cc1
    2%	/	0%	-1%	/	/	/	-3%
42	COc1ccc(Cc2nnc(SCC(=O)Nc3ccc(C)c(C)c3)o2)cc1OC
    7%[46.1 µM]	-1%	-8%	0%[46.1 µM]	/	1%	/	-15%
43	O=C(NCC1CCCO1)c1ccc(S(=O)(=O)N2CCC(c3nc4ccc(Cl)cc4[nH]3)CC2)cc1 (stereo not given)
    -39%	-18%	/	-18%	-8%	-4%	0.0%	4%
44	Cc1cc(NC(=O)Cc2ccccc2)ccc1NC(=O)c1cccs1
    -2%[46.1 µM]	0%	10%	8%[46.1 µM]	/	0%	/	9%
45	CCCn1nnc(NC(=O)c2ccc(-c3cccc(Cl)c3)o2)n1
    ?	-77%	39%[activator]	7%	1%	-4%	-12%	4%
46	c1ccc(-c2nnnn2-c2ccccn2)cc1
    ?	/	-10%	16%[46.1 µM]	/	/	/	-22%

# Random draw from the library; any-hit rate near 4.8%.
